Ecoli growth: inhibitors of Escherichia coli growth; OD600, 23 h; active compounds read low; OD600 absorbance (no concentration beside the values); 330,000 compounds, 0.21% hits; AID 1053175;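 active means OD600 absorbance below the run mean of sample wells minus 3.6 SD, in any replicate, cut at about 0.56 in these data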;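 further: stock transfer was 300 nL into about 60 µL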
MLL AF4-AF9 inh: inhibitors of human MLL-AF4/AF9 interaction; AID 651704; 350,000 compounds, 0.47% hits; inhibition, % at 10 µM; AlphaScreen, biotin-AF4 peptide binding to FLAG-AF9;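 active means every replicate reaching a set inhibition limit, whatever the replicate mean, cut at about 25% in these data; inconclusive means mean inhibition reaches that limit but some replicates miss it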;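 further: 0% = plate neutral control median and 100% = total signal loss; the record names both 10 and 1 µM as test concentration; the first replicate is given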
Target sequence (P42568 whole entry, looked up): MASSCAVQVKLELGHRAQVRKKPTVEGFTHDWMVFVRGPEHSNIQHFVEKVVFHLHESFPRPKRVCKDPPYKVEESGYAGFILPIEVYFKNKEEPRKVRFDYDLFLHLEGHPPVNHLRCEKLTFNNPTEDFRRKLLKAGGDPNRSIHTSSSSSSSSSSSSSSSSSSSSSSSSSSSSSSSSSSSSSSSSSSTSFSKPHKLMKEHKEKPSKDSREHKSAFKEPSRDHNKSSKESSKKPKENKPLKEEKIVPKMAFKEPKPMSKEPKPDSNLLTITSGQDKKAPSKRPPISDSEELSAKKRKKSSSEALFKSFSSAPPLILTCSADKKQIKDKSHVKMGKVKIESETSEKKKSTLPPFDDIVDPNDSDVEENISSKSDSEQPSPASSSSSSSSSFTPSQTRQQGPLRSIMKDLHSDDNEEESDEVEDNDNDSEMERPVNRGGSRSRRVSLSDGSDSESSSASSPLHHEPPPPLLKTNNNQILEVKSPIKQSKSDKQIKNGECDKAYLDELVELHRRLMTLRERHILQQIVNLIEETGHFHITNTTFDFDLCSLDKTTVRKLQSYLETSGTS
Vif A3G: HIV-1 Vif–A3G interaction blockers – biochemical, TR-FRET, GST-Vif 1-94, biotin-A3G peptide, dose response retest, primary screen (AID 1117319); TR-FRET GST-Vif / biotin-A3G peptide binding; higher % means a stronger effect; test concentration not given here; strong numbers were not always called active; inhibition, %; hits with a dose series show IC50 in µM; 260,000 compounds, 0.57% hits;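 active means above the screen mean plus three standard deviations and confirmed in dose response; inconclusive means results disagree or hit not tested in dose response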;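 further: Vif residues 1-94 fused to GST binding biotinylated APOBEC3G peptide 110-148; 0% = full assay without inhibitor and 100% = GST in place of GST-Vif; retest series ran down from 100 µM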
HNF4A DNA FP: change in binding of human HNF4 alpha to DNA. P41235. HNF4a-FITC DNA binding, fluorescence polarization, 1 h. activity change, % at 10 µM. 360,000 compounds, 0.3% hits. AID 1224865; in the data active means activity change above about 30%, passing the limit was not always enough;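 further: controls were the assay level and a saturating level of protein; the project sought stronger binding though the title names inhibitors; some compounds called inactive have numbers as strong as hits; positive values seem to mean higher polarization but the record does not say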
ALR inh: blocks human ALR sulfhydryl oxidase activity. 290,000 compounds, 3.8% hits. P55789. inhibition, % (no concentration beside the values). purified ALR, DTT oxidation, H2O2 HRP-luminol luminescence;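 active means mean and each replicate at 75% or more; inconclusive means only one of the two met; inactive means neither met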;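 further: stock transfer was 7.5 nL into about 7.5 µL; 0% = neutral wells and 100% = wells with inactivated enzyme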
Target sequence (P55789 whole entry, looked up): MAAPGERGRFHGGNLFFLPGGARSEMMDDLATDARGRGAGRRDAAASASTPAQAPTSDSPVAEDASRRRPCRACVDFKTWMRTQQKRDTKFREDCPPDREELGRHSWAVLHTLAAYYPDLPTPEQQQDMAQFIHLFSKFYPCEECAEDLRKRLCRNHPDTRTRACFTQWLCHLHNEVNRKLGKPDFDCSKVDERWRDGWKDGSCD
FGF22 binding: shifts melting point of recombinant human FGF22 | recombinant FGF22 thermal shift, SYPRO orange fluorescence; percent of sucrose octasulfate shift, DMSO zero | calls only at 9.99 µM | 340,000 compounds, 1.5% hits | AID 651658;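 active means melting point raised past a set limit in the mean and every replicate; inconclusive means no clear call; three in four hits are not shown here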
Target sequence (Q9HCT0 whole entry, looked up): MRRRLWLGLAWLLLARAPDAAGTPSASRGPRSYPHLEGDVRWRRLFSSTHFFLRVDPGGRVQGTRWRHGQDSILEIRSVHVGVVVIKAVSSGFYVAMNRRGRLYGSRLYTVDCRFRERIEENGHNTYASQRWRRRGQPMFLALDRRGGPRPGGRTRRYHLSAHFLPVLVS
rRNA inh HTS: selective bacterial rRNA inhibition in E. coli | 350,000 compounds, 1.6% hits | GFP signal change (wild-type ribosome), % (concentration not given with the values) | AID 720706 | E. coli WT GFP vs humanized-ribosome RFP mutants, fluorescence, 24 h; active compounds read low; DMSO median 0, no signal -100;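 active means significant combined selectivity score with lowered wild-type GFP, culture density cut under 30%, mutant RFP and density less affected; inactive means any of these conditions unmet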; further: one replicate is shown; some compounds called inactive have numbers as strong as hits
rRNA inh HTS OD600: second read-out of rRNA inh HTS, no call of its own (marks repeat the call); OD600 change, %; measured here: OD600 growth;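 optical density of the mix in the first replicate; 0 = DMSO median and -100 = no signal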
rRNA inh HTS RFP: further read-out of rRNA inh HTS, marked with its call; RFP signal change, %; measured here: RFP humanized mutant strains;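 first replicate; 0 = DMSO median and -100 = no signal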
Active calls of the source: *; i = inactive; u = inconclusive; x = no result given. These rows are one share of the data; rates above refer to the full screens.

SMILES	Ecoli growth	MLL AF4-AF9 inh	Vif A3G	HNF4A DNA FP	ALR inh	FGF22 binding	rRNA inh HTS	rRNA inh HTS OD600	rRNA inh HTS RFP
COc1ccc(S(=O)(=O)Nc2ccc3c(c2)C(=O)N([C@H](C)CO)C[C@H](C)[C@H](CN(C)S(C)(=O)=O)OCCCC[C@@H](C)O3)cc1	x	-2.7	x	x	x	i	0	1	-3.3
O=C(Nc1ccccc1)NC1(C(=O)NCc2cccs2)CCCCC1	0.65	x	2%	-4.0	-3	x	x	x	x
Cc1ccc2cc3c(NS(=O)(=O)c4cccc5nonc45)nn(CC(C)C)c3nc2c1	0.7	-6.4	x	1.0	98*	i	18	40	34
Cc1oc(-c2ccc3c(c2)OCCO3)cc1C(=O)NCC(=O)O	0.69	-2.3	20%	0.3	4	i	20	16	0.7
CS(=O)(=O)n1nc(OC(=O)c2cc(Br)ccc2Cl)cc1N	0.7	0.9	x	3.1	11	i	x	x	x
CCCCc1nc2cc(C(=O)N3CCC(OC)CC3)ccc2o1	0.65	-17	x	1.9	-6	i	9	8	0.8
O=C(COc1ccc(Cl)cc1)NCC(=O)N1CCC2(CC1)NCCc1[nH]cnc12	0.68	0.6	x	-2.5	-4	i	17	14	0.2
Cc1ccccc1-c1nc(CS(=O)CC(=O)NCCc2ccc(Cl)cc2)c(C)o1 (centres undefined)	0.71	-6.9	5%	-1.7	98*	i	0	-7	1.3
COCc1cn(CC[C@H]2CC[C@@H](NC(=O)c3ccncc3)[C@H](CO)O2)nn1	x	-1.4	x	x	x	i	2	21	-2.5
CCOc1ccccc1OCC(=O)OC(C)C(=O)Nc1ncc(Cl)cc1Cl (centres undefined)	0.68	-3.6	-2%	1.3	2	i	6	2	2.4
COc1ccc(C(C(=O)NC2CCCC2)N(Cc2cccnc2)C(=O)Cc2cccs2)cc1OC (centres undefined)	0.63	-3.1	x	0.9	-1	i	1	1	-2.6
NC(=NCc1ccc2c(c1)OCO2)NC(=O)c1ccccc1	0.66	3.0	1%	-4.3	x	x	-19	-19	-0.5
Cc1ccccc1OCCOC(=O)c1cc(S(=O)(=O)N2CCCCC2)ccc1N1CCOCC1	0.71	-3.0	x	-3.0	-29	i	10	2	-0.4
CC1CCCC(NC(=O)Cc2ccc(Br)cc2)C1C (centres undefined)	0.73	x	-13%	2.7	-3	x	x	x	x
Cc1ccc(NC(=O)CN(C)Cc2nc3ccccc3c(=O)[nH]2)c(Br)c1	0.74	x	-1%	2.7	3	x	x	x	x
Cc1cc(-c2ccccc2)nc(N/N=C/c2cccnc2)n1	x	-1.3	x	11	1	i	-3	7	1.4
CN1C(=O)C(O)(C2CCCCCC2=O)c2ccccc21 (centres undefined)	0.64	0.9	12%	-0.9	-7	i	-12	-5	-2.6
C[C@@H]1CN([C@@H](C)CO)C(=O)c2cccc(NS(=O)(=O)c3ccc(Cl)cc3)c2O[C@@H]1CN(C)Cc1ccc(C(F)(F)F)cc1	x	1.8	x	x	x	i	1	-4	2.7
CCCCN(C)C(=O)c1ccc2c(c1)N(CC)C(=O)c1ccccc1S2=O (centres undefined)	0.69	1.0	-1%	-0.8	-20	i	4	1	-0.4
O=C(C[C@H]1C[C@H]2c3cc(NC(=O)CC4CC4)ccc3O[C@H]2[C@@H](CO)O1)NCc1cc(F)ccc1F	x	-2.2	x	x	x	i	-2	0	-4.0
O=c1[nH]cc(C=NNc2ccccc2)c(=O)[nH]1	x	2.0	x	1.1	x	i	x	x	x
Cc1cccc(C(=O)Oc2ccc(/C=N/O)cc2)c1	x	-28	-2%	1.0	56	i	-14	-8	2.9
CCCNC(=O)C(Cc1cccc(Br)c1)NC(=O)c1ccc(C#N)cc1 (centres undefined)	0.67	x	x	3.9	-8	x	x	x	x
Cc1ccc(C(=O)N2CCN(c3ccccn3)CC2)cc1	0.68	-1.0	6%	-2.5	-5	x	x	x	x
Cc1nn(Cc2ccc(Cl)cc2)c(C)c1NC(=O)c1cc(-c2ccco2)on1	0.69	x	u	5.5	-2	x	x	x	x
Cc1ccc(NC(=O)CNCc2ccccn2)cc1S(=O)(=O)N(C)C	0.67	2.1	u	0.8	x	i	1	3	4.9
CCCNC(=O)N1[C@@H](C#N)[C@H](c2ccc(-c3cccnc3)cc2)[C@@H]1CO	x	-2.2	x	x	x	i	3	5	-1.2
COc1cccc(NC(=O)Cn2cnc3sc(C)c(S(=O)(=O)N4CCN(C)CC4)c3c2=O)c1	0.63	x	11%	2.7	-4	x	x	x	x
COc1ccc(/C=C/c2nnc(NC(=O)CC(C)C)s2)cc1	0.69	0.6	-4%	0.2	-47	i	5	-4	-1.3
O=C(C[C@@H]1CC[C@H]2[C@@H](COC[C@H](O)CN2S(=O)(=O)c2ccccc2)O1)N1CCOCC1	x	-11	x	x	x	i	-3	2	-4.4
COc1cc2ccccc2cc1C(=O)Nc1nccs1	0.71	0.7	x	3.8	x	i	-16	-14	-1.1
COc1ccc(CCNc2cc(C)nc3c(-c4ccccc4)cnn23)cc1OC	0.73	-2.8	x	4.1	-1	i	x	x	x
CC(=O)N1CCN(c2ccc(S(=O)(=O)N3CCCCC3)cc2[N+](=O)[O-])CC1	0.68	1.9	-8%	-1.2	3	i	-2	-5	2.9
Cn1ncc(N=Cc2c(O)ccc3ccccc23)c1C(=O)Nc1cccc(Cl)c1	0.64	2.0	1%	-0.4	-19	i	15	10	-0.7
CCC(=O)Nc1cccc2ccccc12	0.67	-0.7	-5%	-5.3	-9	i	13	6	-1.3
CC(C)(C)c1ccc(-n2ncc3c2CCCC3NC(=O)CCn2cncn2)cc1 (centres undefined)	0.69	1.2	x	-0.1	-4	i	-1	-17	2.6
CC(C)Cc1cc(C(=O)NCc2ccco2)no1	0.74	6.5	-6%	-0.5	24	i	4	6	-0.5
CCN(c1ccccc1)S(=O)(=O)c1ccc2c(c1)N(C(C)=O)CCS2	0.69	-2.4	-1%	4.0	-5	i	-26*	-15*	3.5*
O=C(NCC[C@@H]1CC[C@H](NS(=O)(=O)c2cccc(F)c2)[C@H](CO)O1)C1CC1	x	-1.4	x	x	x	i	-2	-7	-2.2
CN1CCC(OC(=O)c2cccc(Cl)c2)CC1	0.7	0.5	-4%	1.1	17	i	11	7	0.5

Some of the entries so far, as a markdown table:
| molecule | Ecoli growth | MLL AF4-AF9 inh | Vif A3G | HNF4A DNA FP | ALR inh | FGF22 binding | rRNA inh HTS | rRNA inh HTS OD600 | rRNA inh HTS RFP |
| --- | --- | --- | --- | --- | --- | --- | --- | --- | --- |
| Cc1nn(Cc2ccc(Cl)cc2)c(C)c1NC(=O)c1cc(-c2ccco2)on1 | 0.69 | x | u | 5.5 | -2 | x | x | x | x |
| Cc1ccc(NC(=O)CNCc2ccccn2)cc1S(=O)(=O)N(C)C | 0.67 | 2.1 | u | 0.8 | x | i | 1 | 3 | 4.9 |
| CCCNC(=O)N1[C@@H](C#N)[C@H](c2ccc(-c3cccnc3)cc2)[C@@H]1CO | x | -2.2 | x | x | x | i | 3 | 5 | -1.2 |
| COc1cccc(NC(=O)Cn2cnc3sc(C)c(S(=O)(=O)N4CCN(C)CC4)c3c2=O)c1 | 0.63 | x | 11% | 2.7 | -4 | x | x | x | x |
| COc1ccc(/C=C/c2nnc(NC(=O)CC(C)C)s2)cc1 | 0.69 | 0.6 | -4% | 0.2 | -47 | i | 5 | -4 | -1.3 |
| O=C(C[C@@H]1CC[C@H]2[C@@H](COC[C@H](O)CN2S(=O)(=O)c2ccccc2)O1)N1CCOCC1 | x | -11 | x | x | x | i | -3 | 2 | -4.4 |
| COc1cc2ccccc2cc1C(=O)Nc1nccs1 | 0.71 | 0.7 | x | 3.8 | x | i | -16 | -14 | -1.1 |
| COc1ccc(CCNc2cc(C)nc3c(-c4ccccc4)cnn23)cc1OC | 0.73 | -2.8 | x | 4.1 | -1 | i | x | x | x |
| CC(=O)N1CCN(c2ccc(S(=O)(=O)N3CCCCC3)cc2[N+](=O)[O-])CC1 | 0.68 | 1.9 | -8% | -1.2 | 3 | i | -2 | -5 | 2.9 |
| Cn1ncc(N=Cc2c(O)ccc3ccccc23)c1C(=O)Nc1cccc(Cl)c1 | 0.64 | 2.0 | 1% | -0.4 | -19 | i | 15 | 10 | -0.7 |
| CCC(=O)Nc1cccc2ccccc12 | 0.67 | -0.7 | -5% | -5.3 | -9 | i | 13 | 6 | -1.3 |
| CC(C)(C)c1ccc(-n2ncc3c2CCCC3NC(=O)CCn2cncn2)cc1 (centres undefined) | 0.69 | 1.2 | x | -0.1 | -4 | i | -1 | -17 | 2.6 |
| CC(C)Cc1cc(C(=O)NCc2ccco2)no1 | 0.74 | 6.5 | -6% | -0.5 | 24 | i | 4 | 6 | -0.5 |
| CCN(c1ccccc1)S(=O)(=O)c1ccc2c(c1)N(C(C)=O)CCS2 | 0.69 | -2.4 | -1% | 4.0 | -5 | i | -26* | -15* | 3.5* |
| O=C(NCC[C@@H]1CC[C@H](NS(=O)(=O)c2cccc(F)c2)[C@H](CO)O1)C1CC1 | x | -1.4 | x | x | x | i | -2 | -7 | -2.2 |
| CN1CCC(OC(=O)c2cccc(Cl)c2)CC1 | 0.7 | 0.5 | -4% | 1.1 | 17 | i | 11 | 7 | 0.5 |

Next compounds
SMILES	Ecoli growth	MLL AF4-AF9 inh	Vif A3G	HNF4A DNA FP	ALR inh	FGF22 binding	rRNA inh HTS	rRNA inh HTS OD600	rRNA inh HTS RFP
COC(=O)c1ccccc1NC(=O)c1cc[n+]([O-])cc1	0.66	-1.3	1%	3.0	-5	i	8	12	1.2
C[C@H]1CN([C@@H](C)CO)C(=O)Cc2cc(NS(C)(=O)=O)ccc2O[C@H]1CN(C)Cc1ccccc1	x	2.6	x	x	x	i	-2	-1	0.2
COc1cccc(C(=O)NCC(=O)n2nc(C)cc2C)c1	0.67	x	4%	-1.5	-2	x	x	x	x
COc1cc(O)c(C(CC(=O)N2CCN(c3ccccc3)CC2)c2cc(OC)c(OC)c(OC)c2)c(OC)c1 (centres undefined)	0.72	x	x	2.4	0	x	x	x	x
COc1nccc(Nc2ccccc2)c1C#N	0.66	x	-4%	2.4	1	x	x	x	x
O=C(NC(N1CCCC1)C(Cl)(Cl)Cl)c1ccccc1 (centres undefined)	0.72	x	-4%	2.2	-14	x	x	x	x
Cc1nc(N)[nH]c(=O)c1CCCNc1ccc(CCCCC2(CCl)OCCO2)cc1	0.71	0.1	5%	-1.5	x	i	-11	-24	-3.0
CCOC(=O)c1c(SCCN2CCCC2)n(-c2ccccc2)c(=S)n(-c2ccccc2)c1=O	x	5.5	x	-4.5	x	i	10	18	2.8

Compound profiles, as listed above:
`COc1nccc(Nc2ccccc2)c1C#N` in the list: Ecoli growth = 0.66; MLL AF4-AF9 inh = x; Vif A3G = -4%; HNF4A DNA FP = 2.4; ALR inh = 1; FGF22 binding = x; rRNA inh HTS = x; rRNA inh HTS OD600 = x; rRNA inh HTS RFP = x
`COc1cc(O)c(C(CC(=O)N2CCN(c3ccccc3)CC2)c2cc(OC)c(OC)c(OC)c2)c(OC)c1` (centres undefined) in the list: Ecoli growth = 0.72; MLL AF4-AF9 inh = x; Vif A3G = x; HNF4A DNA FP = 2.4; ALR inh = 0; FGF22 binding = x; rRNA inh HTS = x; rRNA inh HTS OD600 = x; rRNA inh HTS RFP = x

Screening data from PubChem BioAssay.
